# Bioassay records as filed in PubChem.
# HSD17B inhib: blocks hydroxysteroid 17-beta dehydrogenase activity. Q99714. recombinant HSD17B10, NADH fluorescence kinetic; many of its hits are not listed in these tables. Potency, µM (highest dose often 57.1 µM), inactives show top-dose activity change, negative = inhibition, most hits filed as inhibitors. hit rate 7.6% among 75,000. AID 893; active = well fitted inhibition curve with a large enough effect; inconclusive = small, poorly fitted or top-dose-only effect; inactive = no such curve, though single readings can be large or run the other way;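 also: the protocol describes HADH2 (HSD17B10) and not the HSD17B4 of the title; nearly all actives have a fitted effect of over 70% in size; most hits overshoot -100% by far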
#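 Activity followed as NADH fluorescence increase (ex 360, em 450 nm) every 30 seconds for 4 min, using final 90 uM beta-hydroxybutyryl CoA and 1 mM NAD+. Recombinant His-tagged enzyme, 20 nM, pH 9.0 Tris buffer, 15 min compound preincubation.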
# The depositor's hits bear a star; ? = inconclusive; [ ] = another dose, or the depositor's remark. % is scaled to controls: 0 for no effect and ±100 for the full control effect; potency is read from the fitted curve at half-maximal effect.
Molecule	HSD17B inhib
Cc1ccc(-c2noc(CCC(=O)NCCN3CCc4ccccc4C3)n2)cc1	5%
CC1(C)NC(=O)N(CC(O)CN2C(=O)NC(C)(C)C2=O)C1=O	11%
Cc1cc(C)n2nc3nc(N4CCCCC4)nc(-c4ccco4)c3c2n1	25µM*
O=C(C1CCCN1S(=O)(=O)c1ccc(Cl)c(Cl)c1)N1CCOCC1 (stereo not drawn)	-5%
NS(=O)(=O)c1ccc(NC(=O)COC(=O)CSc2n[nH]c(-c3ccccc3)n2)cc1	-4%
CCCCCCCC[N+](CCCCCCCC)(CCCCCCCC)CCCCCCCC	?
O=C1c2oc3ccc(Cl)cc3c(=O)c2C(c2cccc(Br)c2)N1CCO (stereo not drawn)	4%
O=S(=O)(c1ccc(Br)s1)n1cccn1	0%
Cc1ccc(-c2nn[nH]n2)cc1	19%
Cc1ccc(S(=O)(=O)O[C@@H]2[C@H]([C@@H]3COC(C)(C)O3)O[C@H]3OC(C)(C)O[C@@H]32)cc1	1%[11.4 µM]
Cc1occc1-c1nnc(SCC(=O)Nc2ccccc2-c2ccccc2)n1C	4%
COc1ccc(-c2csc3c2[N+]2=CCC=C2C3=O)cc1	-1%[11.4 µM]
OC1(C(O)(c2ccc(-c3ccccc3)cc2)c2ccc(-c3ccccc3)cc2)CCCCC1	2%[11.4 µM]
CCn1c(=O)cc(SCC(=O)N2CCCCC2)c2ccccc21	25µM*
Cc1nc(S(=O)(=O)NC2CCCCC2)c(C#N)c(C)c1Cl	1%
Cc1cc(=O)oc(C)c1C(=O)NCc1ccccn1	3%
C/C(=N/O)c1ccc2cc(Br)c3ccccc3c2c1	-1%[11.4 µM]
Cn1ccnc1SCC(=O)NC12CC3CC(CC(C3)C1)C2	5%
COc1ccc(-n2c(=O)c(C)nc3cnc(Oc4ccccc4)nc32)cc1	9%
Cc1cc(C)c(NC(=O)Cn2c(=O)n(Cc3ccco3)c(=O)c3ccccc32)c(C)c1	-13%
COc1ccc(-c2nnn(CC(=O)N(CC(=O)NC3CCCC3)Cc3cccs3)n2)cc1OC	3%
COc1ccc2c(c1)CCc1c(C(=O)Nc3cc(C)n(Cc4ccc(Cl)cc4)n3)noc1-2	?
Oc1[nH]c2ccccc2c1C1=NCCCC1	-6%
COc1cc(C(=O)N2c3ccccc3CC2C)cc(OC)c1OC (stereo not drawn)	-2%
COc1ccc(C(=O)n2ccc(C)n2)cc1Br	-1%
COC(=O)c1ccc(COC(=O)C23CC4CC(CC(O)(C4)C2)C3)o1	0%
O=S(=O)(Nc1cc(Cl)ccc1N1CCCCC1)c1cccs1	-22%
COc1ccc(C)cc1NC(=O)CSc1nnc(COc2ccc(Cl)cc2)n1Cc1ccco1	-13%
C/C(CCN1CCCc2nc(C)c(C)cc21)=N\OC[C@@H](O)COCc1ccco1	4µM*
Cc1ccc(S(=O)(=O)N(C)Cc2ccc(-c3nnc4n3CCC4)cc2)cc1	0%
COC(=O)c1[nH]c2ccccc2c1NC(=O)CN1CCN(Cc2ccc3c(c2)OCO3)CC1	?
Cc1nc2scc(-c3ccccc3)c2c(=O)n1/N=C/c1ccco1	6%
CCOC(=O)C1=C(C)N=C2SCCC(=O)N2C1c1cccs1 (stereo not drawn)	2%
Cc1ncsc1C(=O)NCc1ccc(N2CCCC2=O)cc1	15%
Clc1ccccc1/C=C\c1ccnc2ccccc12	?
O=C(NCc1cccnc1)C1c2ccccc2C(=O)N1C1CCCC1 (stereo not drawn)	12%
CCOc1ccc(NC(=O)CSc2nnc(Cc3cccn3C)n2-c2ccc(OC)cc2)cc1	-13%
O=C1CCCc2c1[nH]c1ccccc21	-11%
NC(=O)CN(c1ccc(Cl)cc1)S(=O)(=O)c1ccccc1	0%
Cc1nn(-c2ccccc2)c(Cl)c1C(=O)NCC(=O)O	8%

# In another format: entries from further up
molecule: COC(=O)c1[nH]c2ccccc2c1NC(=O)CN1CCN(Cc2ccc3c(c2)OCO3)CC1
  HSD17B inhib = ?
molecule: Cc1nc2scc(-c3ccccc3)c2c(=O)n1/N=C/c1ccco1
  HSD17B inhib = 6%
molecule: CCOC(=O)C1=C(C)N=C2SCCC(=O)N2C1c1cccs1 (stereo not drawn)
  HSD17B inhib = 2%
molecule: Cc1ncsc1C(=O)NCc1ccc(N2CCCC2=O)cc1
  HSD17B inhib = 15%

# The list goes on.
Molecule	HSD17B inhib
O=C(Cc1ccccc1)Nc1nc2ccc(Cl)cc2c2nc(-c3ccco3)nn12	4µM*
CC(C)(C)c1[nH]nc2c1C(c1ccncc1)C(C#N)=C(N)O2 (stereo not drawn)	4%
Nc1c(NCc2ccccc2F)c(=O)[nH]c(=O)n1Cc1ccccc1	-27%
O=C1CC(c2ccc(S(=O)(=O)NCCOc3ccccc3)cc2)CN1 (stereo not drawn)	-4%
Cn1c(SCC(=O)Nc2cccc3ccccc23)nc(O)cc1=O	-16%
CCN1C(=O)/C(=C/N(C)C)c2ccccc21	?
CCOC(=O)Cn1c(=O)sc2ccccc21	1%
Cn1c(/N=C/c2c(O)ccc3ccccc23)nc2ccccc21	?
O=C(O)/C(=C/c1c(C(=O)O)[nH]c2cc(Cl)cc(Cl)c12)c1ccccc1	-15%
N#Cc1ccc(CSc2nnc(-c3ccccn3)n2-c2ccccc2)cc1	-5%
COC(=O)C/C=C\[C@@H](C)[C@@H](/C=N\OC[C@@H](C)[C@H](OCc1ccccc1)C(C)C)NS(=O)(=O)c1ccc(C)cc1	-1%[11.4 µM]
CCC1CCCCN1C(=O)CSc1nnc(CNC(=O)c2ccco2)o1 (stereo not drawn)	12%
CCn1c(=O)cc(OCC(=O)N2CCCC2)c2ccccc21	-5%
CCN(C(=O)Cc1c(C(=O)O)[nH]c2ccccc12)c1cc(OC)ccc1OC	-13%
Clc1ccc(COn2nnc3ccccc32)c(Cl)c1	5%
C/C(O)=C\c1nc(=O)c2c(C)cc(C)nc2n1-c1ccccc1	-2%
COc1ccccc1-n1c(SCC(=O)NC2CCCC2)nc2cccnc21	9%
Cc1nc2ccccc2c(=O)n1CCCn1ccnc1	3%
COc1ccc(COC(=O)c2n[nH]c3ccccc23)cc1F	?
CC1(C)CC(=O)c2cc(C(=O)NCc3ccco3)c(=O)n(-c3ccc(Cl)cc3)c2C1	-4%
CCOC(=O)Cn1c(=O)c2c(nc(Br)n2Cc2ccccc2)n(C)c1=O	2%
Cc1cc2ccccc2c(=O)n1CC(=O)NCC(=O)N1CCCC1	?
COc1ccc(-c2nnc(SCC(=O)N3CCCC3)o2)cc1OC	4%
Cc1cc(=O)[nH]c(SCn2nnc3ccccc3c2=O)n1	9%
CCS(=O)(=O)N1CCC(C(=O)N2CCOCC2)CC1	6%
CCCn1c2c(c(O)c(C(=O)Nc3ncccc3C)c1=O)CCCC2	1%
CCOC(=O)c1cc2n(c1C)-c1ccccc1C2=O	4%
CC1=C(C(=O)OCc2ccccc2)C(c2cccc([N+](=O)[O-])c2)NC(=O)N1CCCCCC(=O)O (stereo not drawn)	-12%
CCCC1(C(=O)OCC)NC(c2ccc(N(C)C)cc2)C2C(=O)N(c3ccc(OCC)cc3)C(=O)C21 (stereo not drawn)	?
O=c1cccc(-c2ccccc2)[nH]1	-1%
CN(C)CCO[C@@H](c1ccc(Cl)cc1)c1ccccn1	-1%[25.6 µM]
O=C(OCc1nnc(-c2ccccc2)o1)C1CCN(S(=O)(=O)c2cccs2)CC1	-5%
O=C(NC1CCCCCC1)c1cccc(N2CCCC2=O)c1	-2%
Cc1ccc2cc(CCNC(=O)CC(C)C)c(=O)[nH]c2c1	-16%
O=C(Nc1ccc(N2CCCC2)cc1)c1cccc(F)c1	4%
O=C(CSc1nnc(NCc2ccccc2)s1)c1ccco1	-4%
O=C(CN1CCN(c2ccccn2)CC1)Nc1ccc(Cl)c(C(F)(F)F)c1	0%
COc1ccc(N(Cc2cc3cc(OC)ccc3[nH]c2=O)C(=O)c2cccnc2)cc1	?
COc1cccc(C(=O)NCc2nnc(SCC(=O)Nc3nccs3)n2-c2cccc(C)c2)c1	6%
CCOC(=O)c1ccc(N2C(=O)c3n[nH]c(C)c3C2c2cccnc2)cc1 (stereo not drawn)	12%
Nc1cc(N)nc(SCc2cc(=O)oc3cc4c(cc23)CCC4)n1	4%
CN1C(=O)NC2C1N(S(C)(=O)=O)CCN2S(C)(=O)=O (stereo not drawn)	8%
CCOc1cc(C2C(C(=O)c3ccc(C)cc3)=C(C(=O)OC)Nc3nnnn32)ccc1O (stereo not drawn)	-4%
Cc1c(C(=O)OCc2cc(=O)n3cc(Br)ccc3n2)oc2ccccc12	13%
Cc1ccc(C)c(C(=O)NCc2ccncc2)c1	11%
COc1cc(C(=O)N2CCN(c3ccc(C)cc3C)CC2)cc(OC)c1OC	-1%
COCCNC(=O)CC(NS(=O)(=O)c1ccc(NC(C)=O)cc1)C(C)C (stereo not drawn)	0%
Oc1c(C(O)(c2ccccc2)c2ccc3ccccc3c2O)ccc2ccccc12	-19%[11.4 µM]
Cc1nc(NC(=O)C2CC2)sc1C(=O)N1CCCCC1	-8%
Cc1oncc1C(=S)Nc1ccccc1	0%

# More records
Molecule	HSD17B inhib
CCn1cc(C2=NOC(C(=O)Nc3cc(OC)c(Cl)cc3OC)C2)c(C)n1 (stereo not drawn)	5%
CCCn1c(SCC(=O)N2c3ccccc3Sc3ccccc32)nc2c1c(=O)n(C)c(=O)n2C	7%
COc1ccc(OC)c(C(c2nnnn2C2CCCC2)N2CCc3ccccc3C2)c1 (stereo not drawn)	-19%
COC(=O)c1ccc(CSc2nnnn2-c2ccc(C)cc2C)o1	-14%
COC(=O)C1=C(C)N(c2ccc(F)c(Cl)c2)C(=O)C1	-11%
CC1=Nc2ccc(C)cc2N(Cc2ccccc2)C(=O)C1	3%
COC(=O)CN(c1ccc(F)cc1)S(=O)(=O)c1ccccc1	2%
CCN(CC)CCN=CC1=C(O)CNC1=O	-1%
N#CCCn1nc(-c2ccccc2)cc1Nc1ccccc1NC(=O)c1cccs1	-6%
Cc1ccc(-c2noc(C3CCCN(C(=O)C4CCCCC4)C3)n2)o1 (stereo not drawn)	-11%

# Continued; it opens with the two that closed the last part.
Molecule	HSD17B inhib
N#CCCn1nc(-c2ccccc2)cc1Nc1ccccc1NC(=O)c1cccs1	-6%
Cc1ccc(-c2noc(C3CCCN(C(=O)C4CCCCC4)C3)n2)o1 (stereo not drawn)	-11%
CCOC(=O)C1Cc2ccccc2C(=O)O1 (stereo not drawn)	0%
COc1ccc(NC(=O)C2CCCN2S(=O)(=O)c2cccc3cccnc23)c(OC)c1 (stereo not drawn)	-2%
c1nc(N2CCOCC2)c2c3c(sc2n1)CCCC3	-3%
COc1cccc(-c2nn3c(-c4cc(C)[nH]n4)nnc3s2)c1	-27%
COc1cccc(C2/C(=C(/O)c3ccc(F)cc3)C(=O)C(=O)N2CCN(C)C)c1 (stereo not drawn)	-8%
Cc1nn(C(C)(C)C)c(OC(=O)C2CCCC2)c1S(=O)(=O)c1ccccc1	-8%
Cc1c(O)cc(O)c2c(=O)c(-c3ccc(O)cc3)coc12	1%
CC(C)Cn1c(N)c(C(=O)COC(=O)C2CCCCC2)c(=O)n(C)c1=O	0%
COc1ccc(-c2nnc3n2N=C(c2cccc(Br)c2)CS3)cc1OC	-6%
Cc1cc(C)c(S(N)(=O)=O)c(C)c1-n1cnnn1	1%
CCOc1ccc(C(=O)N(Cc2ccc(N(C)C)cc2)C2CCS(=O)(=O)C2)cc1 (stereo not drawn)	9%
COC(=O)c1ccc(C(NC(=O)OCc2ccccc2)/C(=C/[C@@H](C)C(=O)NCc2ccccc2)c2cccnc2)cc1 (stereo partly drawn)	-3%
CC1=C(c2ccccc2)[N+](=O)C2(CCCC2)N1[O-]	-5%
O=C(NCc1ccc(F)cc1)c1cc2ccccn2n1	-26%
O=c1c(-c2ccccc2)nc2cncnc2n1Cc1ccc(F)cc1	-14%
O=C(Nc1nc(-c2cccs2)cs1)c1ccc(Cl)s1	-18%
CN(Cc1nc(-c2cccnc2)no1)S(=O)(=O)c1ccc2ccccc2c1	-3%
O=c1c2ccccc2[nH]c(=S)n1Cc1cccnc1	9%
CCNc1sc(C(=O)c2cccs2)c(N)c1-c1nc2ccccc2s1	-25%
COc1cccc(NC(=O)CCN2CCN(C)CC2)c1	-1%
CCCCCCN(C(=O)CCCCCN1C(=O)NC(c2ccc(-c3ccccc3)cc2)C(C(=O)OCc2ccccc2)=C1C)C(C(=O)NCCCC)c1ccc(O)cc1 (stereo not drawn)	-18%
COc1ccccc1CN1CCC2(CC1)CCN(C(=O)c1cccc(F)c1)CC2	3%
O=C(NC(O)C(=O)c1ccccc1)c1cccs1 (stereo not drawn)	3%
O=S(=O)(c1ccc2ccccc2c1)N1CCN(S(=O)(=O)N2CCOCC2)CC1	0%
COC(=O)c1ccccc1NC(=O)c1cnc2sccn2c1=O	-14%
Cc1cc(C(=O)CSc2nnc(-c3ccco3)o2)c(C)n1CC1COc2ccccc2O1 (stereo not drawn)	-6%
N#CC1=C(N)SC(N)=C(C#N)C1c1ccnc2ccccc12	25µM*
O=C(Nc1ccccc1OC(F)F)c1ccc(Br)o1	8%
N[C@H](CCC(=O)NCS(=O)(=O)O)C(=O)O	3%

# This is a subset, so the mix of outcomes need not match the whole.
